Screening results as filed in PubChem BioAssay.
Yeast UUG start = modulators of start codon recognition fidelity in yeast. actives 0.13% (n = 350,000). S. cerevisiae UUG-firefly luciferase reporter, luminescence/redox ratio. activity score, % at 18.7 µM;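 active = replicate mean at a twofold rise or more, about +100% in these data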;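 also: firefly luciferase made from a UUG start codon reports start codon fidelity; reporter light over untreated wells divided by growth signal over untreated wells; some hits fall short of that in this replicate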
* hit, by the source's call. This is a subset; the hit share may differ from the screen's.

SMILES	Yeast UUG start
COCC(=O)N1CCCCN2[C@H](CO)[C@@H](c3ccc(-c4ccc(F)cc4)cc3)[C@@H]2C1	-15.1
COc1ccccc1CNC(=O)C[C@H]1CC[C@@H]2[C@@H](COc3ccc(NC(=O)Nc4ccc(F)c(F)c4)cc3C(=O)N2C)O1	-8.1
C[C@H]1CN([C@@H](C)CO)C(=O)Cc2cc(NC(=O)C3CC3)ccc2O[C@H]1CN(C)C(=O)Nc1ccc(F)cc1	-15.6
C[C@@H]1CN([C@H](C)CO)C(=O)c2cccc(NS(C)(=O)=O)c2O[C@@H]1CN(C)C(=O)Nc1ccc(F)cc1	-11.3
CO[C@@H]1CN(C)C(=O)c2cc(NS(=O)(=O)c3ccccc3)ccc2OC[C@@H](C)NC[C@@H]1C	-1.3
O=S(=O)(c1ccccc1)N1CCCCN2[C@H](CO)[C@H](c3ccc(-c4ccccc4)cc3)[C@@H]2C1	5.3
CN1c2ccc(C3=CCCCC3)cc2[C@H]2[C@H](CCN2C(=O)NC2CCCCC2)[C@@H]1CO	1.7
CCCNC(=O)C[C@@H]1C[C@H]2c3cc(NC(=O)Nc4ccc(OC)cc4)ccc3O[C@H]2[C@@H](CO)O1	-1.6
CCN1[C@H](C(=O)N[C@@H](C)c2ccccc2)[C@@H](CO)[C@@H]2Cn3c(ccc(-c4cccc(F)c4)c3=O)[C@@H]21	12.6
COc1ccc(CN(C)C[C@H]2Oc3ccc(NS(=O)(=O)c4ccc(F)cc4)cc3CC(=O)N([C@H](C)CO)C[C@H]2C)cc1	-1.9
CCNC(=O)C[C@@H]1CC[C@@H]2[C@H](COC[C@@H](O)CN2Cc2ccc(Cl)c(Cl)c2)O1	-4.7
O=C(C[C@@H]1CC[C@H]2[C@@H](COC[C@@H](O)CN2Cc2ccccc2F)O1)N[C@@H]1CCN(Cc2ccccc2)C1	11.5
O=C(C1CC1)N1CC[C@@H]2[C@H]1c1cc(C#Cc3ccc(F)cc3)ccc1N[C@@H]2CO	-12.5
C[C@H]1CN([C@@H](C)CO)C(=O)c2cc(N(C)C)ccc2O[C@H]1CN(C)C(=O)Nc1ccccc1	-7.5
Cc1ccccc1-c1ccc([C@@H]2[C@H]3CN(C(=O)c4cccnc4)CCCCN3[C@H]2CO)cc1	-14.4
COc1cccc(-c2cnc3c(c2)C(=O)N([C@H](C)CO)C[C@H](C)[C@H](CN(C)S(=O)(=O)c2cccs2)O3)c1	-4.0
C[C@@H]1CN([C@@H](C)CO)C(=O)Cc2cc(NC(=O)Nc3ccc(C(F)(F)F)cc3)ccc2O[C@H]1CN(C)C	4.4
O=C(C[C@H]1C[C@@H]2c3cc(NC(=O)CC4CC4)ccc3O[C@@H]2[C@@H](CO)O1)NCc1cccc(F)c1	16.5
O=C(C1CCOCC1)N1C[C@@H]2[C@H](c3ccccc31)[C@H](CO)N2Cc1ccc(Cl)cc1	2.6
C[C@@H](O)C#Cc1ccc([C@H]2[C@H](CO)N3CCCCN(C(=O)c4cccc(F)c4)C[C@@H]23)cc1	7.0
COc1ccc(CN(C)C[C@@H]2Oc3ccc(NS(=O)(=O)c4ccc(Cl)cc4)cc3C(=O)N([C@H](C)CO)C[C@@H]2C)cc1	0.0
C[C@H](CO)N1C[C@H](C)[C@H](CN(C)C(=O)Nc2ccc(F)cc2)Oc2c(NS(C)(=O)=O)cccc2C1=O	-9.2
N#Cc1cccc(-c2ccc3c(c2)[C@@H]2[C@@H](CCN2C(=O)c2ccncc2)[C@@H](CO)N3)c1	-10.4
C[C@H](CO)N1C[C@H](C)[C@H](CN(C)Cc2ccc(C(=O)O)cc2)Oc2c(NS(=O)(=O)c3ccc(F)cc3)cccc2C1=O	6.5
C[C@@H]1CN([C@@H](C)CO)C(=O)c2cccc(NC(=O)C3CCOCC3)c2O[C@H]1CN(C)Cc1ccc(C(F)(F)F)cc1	-1.4
Other results follow:
SMILES	Yeast UUG start
OC[C@H]1[C@@H](c2ccc(-c3ccccc3F)cc2)[C@H]2CN(Cc3cccnc3)CCCCN21	-10.9
C[C@H]1CN([C@@H](C)CO)C(=O)c2cccc(NC(=O)C3CCCCC3)c2O[C@@H]1CN(C)C(=O)Nc1ccc(F)cc1	5.2
CN1C(=O)c2cc(NC(=O)C3CCCC3)ccc2OC[C@@H]2O[C@@H](CC(=O)O)CC[C@@H]21	-11.4
O=C(C[C@@H]1CC[C@H]2[C@@H](COC[C@H](O)CN2S(=O)(=O)c2ccc(Cl)cc2)O1)N[C@H]1CCN(Cc2ccccc2)C1	16.6
COc1ccc(S(=O)(=O)N(C)C[C@@H]2Oc3ccc(NC(=O)Nc4ccc(F)cc4)cc3C(=O)N([C@H](C)CO)C[C@@H]2C)cc1	-7.9
COc1ccc(NC(=O)Nc2ccc3c(c2)C(=O)N([C@H](C)CO)C[C@@H](C)[C@H](CN(C)S(C)(=O)=O)O3)cc1	1.8
Cn1cnc(S(=O)(=O)N2CCCCN3[C@@H](CO)[C@@H](c4ccc(-c5ccccc5)cc4)[C@@H]3C2)c1	4.7
CN1c2ccc(-c3cccc(F)c3)cc2[C@@H]2[C@@H](CCN2C(=O)C2CCCC2)[C@@H]1CO	-9.6
CCCC(=O)N1C[C@H]2[C@@H](c3ccccc31)[C@@H](CO)N2Cc1cocn1	-16.8
COc1cccc(S(=O)(=O)N2CCCCN3[C@@H](CO)[C@H](c4ccc(C#CCC(C)C)cc4)[C@@H]3C2)c1	11.9
CC(=O)NC[C@H]1[C@@H](c2ccc(-c3cccnc3)cc2)[C@@H](CO)N1C(=O)C1CCC1	-8.3
O=S(=O)(c1cccs1)N1CCCCN2[C@@H](CO)[C@@H](c3ccc(C4=CCCC4)cc3)[C@@H]2C1	5.9
C[C@H](CO)N1C[C@H](C)[C@H](CN(C)Cc2ccncc2)Oc2ccc(NS(=O)(=O)c3ccc(Cl)cc3)cc2CC1=O	2.1
CCNC(=O)Nc1ccc2c(c1)C(=O)N(C)[C@H]1CC[C@H](CC(=O)NC3CCCCC3)O[C@H]1CO2	2.5
C[C@H](CO)N1C[C@H](C)[C@@H](CN(C)Cc2ccc(C(=O)O)cc2)Oc2ccc(NC(=O)NC3CCCCC3)cc2CC1=O	9.6
CC(C)CC#Cc1ccc([C@@H]2[C@@H](CO)N3CCCCN(C(=O)Nc4ccccc4)C[C@H]23)cc1	2.2
C[C@@H]1CN([C@@H](C)CO)C(=O)c2cccc(NC(=O)C3CCOCC3)c2O[C@H]1CN(C)Cc1ccc(-c2ccccc2)cc1	14.4
CCCC(=O)Nc1ccc2c(c1)OC[C@H](C)N(C(=O)c1ccccn1)C[C@H](C)[C@H](OC)CN(C)C2=O	-5.2
CS(=O)(=O)N1CCCCN2[C@@H](CO)[C@H](c3ccc(Br)cc3)[C@@H]2C1	38.3
C[C@H](CO)N1C[C@H](C)[C@@H](CN(C)S(=O)(=O)c2cccs2)Oc2ccc(NC(=O)Cc3cn(C)c4ccccc34)cc2C1=O	-9.9
CCC(=O)Nc1ccc2c(c1)C(=O)N(C)C[C@@H](OC)[C@H](C)CN[C@H](C)CO2	-4.1
OC[C@@H]1[C@H]2c3ccccc3NC[C@H]2N1Cc1ccccc1Cl	2.1
Cc1noc(C)c1S(=O)(=O)Nc1cccc2c1O[C@@H](CN(C)Cc1ccc(Cl)c(Cl)c1)[C@@H](C)CN([C@H](C)CO)C2=O	12.9
COc1ccc(NC(=O)N2CCCCN3[C@H](CO)[C@H](c4ccc(C#Cc5ccccn5)cc4)[C@H]3C2)cc1	18.6
O=C(c1cccnc1)N1CC[C@@H]2[C@H](CO)Nc3ccc(-c4ccccc4)cc3[C@@H]21	-8.4

Already shown: entries from further up.
SMILES	Yeast UUG start
OC[C@@H]1[C@H]2c3ccccc3NC[C@H]2N1Cc1ccccc1Cl	2.1
Cc1noc(C)c1S(=O)(=O)Nc1cccc2c1O[C@@H](CN(C)Cc1ccc(Cl)c(Cl)c1)[C@@H](C)CN([C@H](C)CO)C2=O	12.9
COc1ccc(NC(=O)N2CCCCN3[C@H](CO)[C@H](c4ccc(C#Cc5ccccn5)cc4)[C@H]3C2)cc1	18.6
O=C(c1cccnc1)N1CC[C@@H]2[C@H](CO)Nc3ccc(-c4ccccc4)cc3[C@@H]21	-8.4

Some values from above:
C[C@@H]1CN([C@@H](C)CO)C(=O)c2cccc(NC(=O)C3CCOCC3)c2O[C@H]1CN(C)Cc1ccc(-c2ccccc2)cc1 in Yeast UUG start has 14.4
C[C@H](CO)N1C[C@H](C)[C@@H](CN(C)Cc2ccc(C(=O)O)cc2)Oc2ccc(NC(=O)NC3CCCCC3)cc2CC1=O in Yeast UUG start has 9.6
CCC(=O)Nc1ccc2c(c1)C(=O)N(C)C[C@@H](OC)[C@H](C)CN[C@H](C)CO2 in Yeast UUG start has -4.1
COc1cccc(S(=O)(=O)N2CCCCN3[C@@H](CO)[C@H](c4ccc(C#CCC(C)C)cc4)[C@@H]3C2)c1 in Yeast UUG start has 11.9

Next results follow.
SMILES	Yeast UUG start
C[C@H]1CN([C@@H](C)CO)C(=O)Cc2cc(NC(=O)CCN3CCOCC3)ccc2O[C@@H]1CN(C)S(=O)(=O)c1ccccc1	-4.7
O=C(C1CCOCC1)N1[C@H](CO)[C@@H]2c3ccccc3NC[C@@H]21	-10.4
O=S(=O)(Cc1ccccc1)N1CCCCN2[C@H](C1)[C@H](c1ccc(-c3ccc(F)cc3)cc1)[C@@H]2CO	16.6
CO[C@@H]1CN(C)C(=O)c2ccc(NC(=O)C3CCOCC3)cc2OC[C@@H](C)N(CC2CCCCC2)C[C@H]1C	-12.5
COc1ccc(S(=O)(=O)N2CC[C@H]3[C@H](CO)Nc4ccc(-c5cccc(C#N)c5)cc4[C@H]32)cc1	-6.0
COc1ccc(NC(=O)N(C)C[C@H]2Oc3c(NS(=O)(=O)c4cccs4)cccc3C(=O)N([C@@H](C)CO)C[C@H]2C)cc1	7.3
O=C(c1ccncc1)N1C[C@H]2[C@@H](c3ccccc31)[C@@H](CO)N2C(=O)c1ccccn1	-13.3
CCCNC(=O)N1[C@H](CNC(=O)c2cccc(F)c2)[C@H](c2ccccc2)[C@@H]1CO	-11.6
Cc1ccc(S(=O)(=O)Nc2ccc3c(c2)C(=O)N([C@H](C)CO)C[C@H](C)[C@H](CN(C)C(=O)Nc2ccc(F)cc2)O3)cc1	-1.8
CO[C@@H]1CN(C)C(=O)c2cc(NC(C)=O)ccc2OC[C@H](C)N(Cc2ccncc2)C[C@H]1C	-4.5
CN(C[C@H]1N[C@@H](CO)[C@@H]1c1ccc(-c2cccc(F)c2)cc1)S(C)(=O)=O	-11.7
C[C@H]1CN([C@@H](C)CO)C(=O)c2cc(NC(=O)C3CC3)ccc2O[C@H]1CN(C)Cc1ccc(-c2ccccc2)cc1	-5.7
Cn1cnc(S(=O)(=O)N2C[C@H](O)COC[C@H]3O[C@@H](CC(=O)NCc4cc(F)cc(F)c4)CC[C@@H]32)c1	6.6
CC(=O)NC[C@@H]1[C@H](c2ccc(C3=CCCC3)cc2)[C@H](CO)N1C(=O)NC(C)C	5.4
CS(=O)(=O)Nc1ccc2c(c1)[C@H]1C[C@@H](CC(=O)N3CCOCC3)O[C@H](CO)[C@H]1O2	-18.6
O=C(C[C@@H]1CC[C@H]2[C@@H](COC[C@@H](O)CN2Cc2ccccc2)O1)NCCCN1CCOCC1	-8.3
CC(C)NC(=O)N(C)C[C@@H]1Oc2c(NC(=O)Nc3ccc(F)cc3)cccc2C(=O)N([C@@H](C)CO)C[C@H]1C	-0.1
C[C@H]1CN([C@@H](C)CO)C(=O)c2cccc(NS(=O)(=O)c3cccs3)c2O[C@H]1CN(C)C(=O)NC1CCCCC1	-8.5
C/C=C/c1ccc([C@H]2[C@@H](CNC(C)=O)N(C(=O)Cc3ccncc3)[C@H]2CO)cc1	-2.7
C[C@H]1CN([C@@H](C)CO)C(=O)c2cccc(NS(=O)(=O)c3cccs3)c2O[C@@H]1CN(C)C(=O)Nc1ccc2c(c1)OCO2	10.7
C[C@H]1CN([C@@H](C)CO)C(=O)c2cccc(NS(=O)(=O)c3cn(C)cn3)c2O[C@H]1CN(C)C	2.0
C[C@@H]1CN([C@@H](C)CO)C(=O)c2cc(NC(=O)C3CC3)ccc2O[C@@H]1CN(C)Cc1ccccc1	-4.4
COc1cccc(C(=O)Nc2ccc3c(c2)C(=O)N(C)[C@@H]2CC[C@H](CC(=O)N[C@@H](C)c4ccccc4)O[C@@H]2CO3)c1	-3.8
O=C(C[C@H]1CC[C@@H]2[C@H](COC[C@H](O)CN2C(=O)c2ccc(F)cc2)O1)NCCCN1CCOCC1	4.8
C[C@H](CO)N1C[C@H](C)[C@@H](CN(C)CC2CCCCC2)Oc2ccc(NC(=O)c3ccncc3)cc2CC1=O	-7.2
The listing continues:
SMILES	Yeast UUG start
C[C@H](CO)N1C[C@H](C)[C@@H](CN(C)Cc2ccncc2)Oc2c(NC(=O)c3ccc(-c4nccs4)cc3)cccc2C1=O	23.3
CN1CCN(C(=O)C[C@@H]2CC[C@H]3[C@@H](COC[C@H](O)CN3Cc3ccc(Oc4ccccc4)cc3)O2)CC1	-6.5
OC[C@@H]1Nc2ccc(-c3ccc(F)cc3)cc2[C@@H]2[C@H]1CCN2Cc1ccc(F)cc1	-14.1
CCC(=O)N1C[C@H](C)[C@@H](OC)CN(C)C(=O)c2ccc(NC(=O)Nc3cccc(F)c3)cc2OC[C@@H]1C	5.4
C[C@H]1CN([C@@H](C)CO)C(=O)c2cccc(NC(=O)c3cnccn3)c2O[C@@H]1CN(C)Cc1ccc(C(=O)Nc2ccccc2N)cc1	-8.7
COc1cccc(C(=O)Nc2ccc3c(c2)C(=O)N(C)C[C@@H](OC)[C@H](C)CN(C(=O)C2CCCC2)[C@@H](C)CO3)c1	8.8
CCC(=O)N1[C@@H]2c3ccc(C4=CCCCC4)c(=O)n3C[C@H]1[C@H](CO)[C@H]2C(=O)N[C@@H](C)c1ccccc1	27.5
C[C@@H]1CN([C@@H](C)CO)C(=O)c2cc(NC(=O)Nc3ccc(F)cc3)ccc2O[C@H]1CN(C)Cc1ccc2c(c1)OCO2	19.7
O=C(c1ccccc1F)N1C[C@@H]2[C@H](c3ccccc31)[C@H](CO)N2CC1CCCCC1	1.8
CN1CCN(C(=O)C[C@H]2CC[C@H]3[C@@H](COC[C@H](O)CN3S(=O)(=O)c3cccc(Cl)c3)O2)CC1	-6.1
COc1ccc(NC(=O)Nc2cccc3c2O[C@H](CN(C)Cc2ccc(C(=O)O)cc2)[C@@H](C)CN([C@H](C)CO)C3=O)cc1	-14.8
